Methyltransferases: Primary Screen for Target Class Profiling of Small Molecule Inhibitors of Methyltransferases; 25,000 compounds, 3.9% hits; purified enzyme, MTase-Glo SAH luminescence; stronger effect = lower value; calls only at 40 µM; active = -50% or lower on at least one of six enzymes; inconclusive = the cases between; inactive = as a rule above -30% on all six;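 further: enzymes were COMT GAMT GNMT HNMT NNMT and PNMT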
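Each enzyme was reacted with SAM and its substrate, with compounds tested once at 40 uM; SAH formed was read by MTase-Glo luminescence.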
Calls only; i = inactive; ? = inconclusive; + = active, no number. On the % scale 0 is the no-effect control and ±100 the full control effect. Not all compounds are listed; count on the stated rates, not on these rows.

SMILES	Methyltransferases
CC1(C(=O)NC2CCCCC2)Cn2nc(-c3cccs3)cc2C(=O)N1Cc1ccc(Cl)cc1 (stereo not drawn)	i
CCNC(=O)N1CC(C(=O)NCc2ccco2)CC(c2ccc(OC)c(OC)c2)C1 (stereo not drawn)	i
CCCn1c(=O)c2ccc(C(=O)NCC(C)C)cc2n2c(=O)n(CC(=O)Nc3cccc(CC)c3)nc12	i
COc1cccc(C(=O)NC2CCCN(c3ccc4nnc(C5CC5)n4n3)C2)c1 (stereo not drawn)	i
CCc1cc2c(cc3n2CC(C)(C(=O)NC2CCCCCC2)N(Cc2ccccc2OC)C3=O)s1 (stereo not drawn)	i
CN(C)CCNC(=O)c1ccnc(-c2nnc3ccc(N(C)c4ccccc4)nn23)c1	+
COc1ccc2c(c1O)OC(C)(C)c1c-2ccc2c1C(=O)N(c1ccc(C(=O)c3ccccc3)cc1)C2=O	?
CCOC(=O)C1CCCN(c2nc3c(S(=O)(=O)c4ccc(C(C)C)cc4)nnn3c3ccccc23)C1 (stereo not drawn)	i
COc1ccccc1CNC(=O)C1(C)Cn2nc(-c3ccccc3)cc2C(=O)N1c1ccccc1C (stereo not drawn)	i
OCC1(CCCc2ccccc2)CCN(Cc2cccc3c2OCO3)CC1	?
O=C(NCc1nc(-c2ncccn2)no1)C1CCCN(Cc2ccco2)C1 (stereo not drawn)	i
COCCCN1C(=O)c2c(C(=O)OC)ncn2CC1(C)C(=O)NC1CCCCCC1 (stereo not drawn)	i
Cc1ccc(CNS(=O)(=O)c2ccc3[nH]c4c(c3c2)CCCC4)o1	i
CC(C)n1c(=O)c2ccc(C(=O)NC3CCCCC3)cc2n2c(=O)n(Cc3cccc(F)c3)nc12	i
CC(=O)O[C@@H]1[C@H](O[C@@H]2OC[C@](O)(CO)[C@H]2O)[C@@H](O[C@@H]2O[C@@H](C)[C@H](O)[C@@H](O[C@@H]3O[C@H](CO)[C@@H](O)[C@H](O)[C@H]3O)[C@H]2O)[C@H](OC(=O)[C@]23CCC(C)(C)C[C@H]2C2=CCC4[C@@]5(C)C[C@H](O)[C@H](O[C@@H]6O[C@H](C(=O)O)[C@@H](O)[C@H](O)[C@H]6O)[C@@](C)(C(=O)O)C5CC[C@@]4(C)[C@]2(C)CC3)O[C@@H]1C (stereo partly drawn)	i
CC(=O)OCC1OC(O[C@H]2CC[C@]34C[C@]35CC(O)[C@]3(C)[C@@H]([C@H](C)CC/C=C(\C)C(=O)O)C(O)C[C@@]3(C)C5CC[C@H]4C2(C)C)C(O)C(O)C1OC1OCC(O)C(O)C1O (stereo partly drawn)	i
CCn1c(C2CCCN(S(=O)(=O)c3cccc4nonc34)C2)nn(C)c1=O (stereo not drawn)	i
CCCN1C(=O)c2cc3occc3n2CC1(C)C(=O)NC1CCCCCC1 (stereo not drawn)	i
C=C1/C(=C/C=C2\CCC[C@]3(C)[C@@H]([C@@H](C)OCCC(O)(CC)CC)CC[C@@H]23)C[C@@H](O)C[C@@H]1O	i
CN(C)CCN1C(=O)c2cc3occc3n2CC1(C)C(=O)NC1CCCCCC1 (stereo not drawn)	i
Cc1noc(C)c1S(=O)(=O)N1CCC2(C1)N=C(c1ccccn1)C(=O)N2 (stereo not drawn)	i
CCOC(=O)c1cc2n(n1)CC(C)(C(=O)NC1CCCCCC1)N(Cc1ccc(OCC)cc1)C2=O (stereo not drawn)	i
O=C(CCn1ccc2cc(S(=O)(=O)N3CCCCC3)ccc21)N1CCCC1	i
C=CCOc1c(OC)ccc2c1CN(Cc1ccccc1)C(=O)CCN2CC(O)COc1ccc(OC)cc1 (stereo not drawn)	?
CC(C)(C)N1CC(C(=O)NCCCc2ccccc2F)CC1=O (stereo not drawn)	i
CC(C)OCCCN1C(=O)c2ccc(-c3ccccc3)n2CC1(C)C(=O)NC1CCCCCCC1 (stereo not drawn)	i
COCCN(C)Cc1cn(Cc2ccccc2)nc1-c1ccc2c(c1)OCO2	i
COc1ccc(Cn2c(C3CCN(C(=O)C4(c5ccccc5)CC4)CC3)n[nH]c2=O)cc1	i
CCOc1ccccc1NS(=O)(=O)c1ccc2c(c1)NC(=O)CC(=O)N2	i
Cc1noc(C)c1-c1cc(-c2cccc3cc[nH]c23)cn2cncc12	?
COc1ccc(CCN2C(=O)c3cc4occc4n3CC2(C)C(=O)NC2CCCCC2C)cc1OC (stereo not drawn)	i
CC1(C(=O)NC2CCCCCCC2)Cn2c(cc3sccc32)C(=O)N1c1cccc(F)c1 (stereo not drawn)	i
O=C(Cn1c(=O)oc2cc(S(=O)(=O)N3CCCCC3)ccc21)N1CCCCC1	i
CCOCc1nc(C2CCCN2S(=O)(=O)c2cn(C)cn2)no1 (stereo not drawn)	i
CCCN1CCC(N2CCCC(Cc3ccccc3)(C(=O)OCC)C2)CC1 (stereo not drawn)	i
CCOc1ccc(-c2cccc3c2CCNC3)cc1C(N)=O	i
CN1C(=O)C(Cc2c[nH]c3ccccc23)NC1=S (stereo not drawn)	i
Cc1cc(C)cc(N2C(=O)c3cc4ccccc4n3CC2(C)C(=O)NCCC(C)C)c1 (stereo not drawn)	i
CCc1ccc(-c2cc3n(n2)CC(C)(C(=O)NC2CCCCC2)N(Cc2ccccn2)C3=O)cc1 (stereo not drawn)	i
COCCCNc1nc2c(S(=O)(=O)c3c(C)cc(C)cc3C)nnn2c2ccccc12	i
CCc1ccccc1NC(=O)N1CCn2c(C)ccc2C1C(C)C (stereo not drawn)	i
C=C1C(=O)O[C@@H]2C3=C(C)CCC[C@]3(C)CC[C@@]12O	+
Cc1cc2c(cc3n2CC(C)(C(=O)NC2CCCCCC2)N(Cc2ccc(Cl)cc2)C3=O)o1 (stereo not drawn)	i
CN(Cc1ccccc1C(F)(F)F)C(=O)Nc1ccccc1	i
COc1ccc2c(c1)c(NC(C)=O)c1n2CC(C)(C(=O)NC2CCCC2)N(CCC(C)C)C1=O (stereo not drawn)	i
CCOCCCNC(=O)C1c2c(n(C)c3ccccc23)SCC(=O)N1Cc1ccccc1Cl (stereo not drawn)	i
N=c1ccn2c(n1)O[C@H]1[C@H](O)[C@@H](CO)O[C@H]12	i
CC1(C(=O)NCc2ccccc2)Cn2c(cc3ccccc32)C(=O)N1Cc1ccccc1Cl (stereo not drawn)	i
O=c1c2nc(Nc3cccnc3)ccc2ncn1-c1ccc(F)cc1F	i
CC(=O)OC1C(O)CC2(C)C(CCC(C)C23Cc2c(O)cc(CO)c(C=O)c2O3)C1(C)C (stereo not drawn)	i

The list continues:
SMILES	Methyltransferases
Cc1nnc(-c2cc(-c3cnn(C)c3)ccn2)n1-c1ccccc1	i
C=C1CCC2C(C)(C(=O)OC)CCCC2(C)C1CCC(C)CC(=O)O (stereo not drawn)	i
Cc1cc(-c2cnc(Nc3ccc(F)cc3)c3c2CCO3)ccn1	i
O=C(O)C[C@H]1CCC(=O)[C@@H]1C/C=C\CCO	i
COc1ccc(CN2CCC([C@@H]3CNC[C@H]3CO)CC2)c(Cl)c1OC	i
C#CCCCn1cc(-c2cccc3c2N[C@@H](C)CC(=O)N3)cn1	i
Cc1cccc(-c2[nH]c(C(C)(C)C)nc2-c2ccc3nccnc3c2)n1	i
O=c1n(CC2CC2)nc2n1CCN(C1CCCC1)CC2	i
CCc1ccc(CN2C(=O)c3cc4ccccc4n3CC2(C)C(=O)NCc2ccccc2OC)cc1 (stereo not drawn)	i
Cn1nnc(-c2ccc(-c3ccc(N4C[C@H](COP(=O)(O)O)OC4=O)cc3F)cn2)n1	i
C=C1[C@H](OC(C)=O)[C@H]2[C@@H](OC(C)=O)C(C)C[C@]2(OC(C)=O)C(=O)[C@H](C)/C=C/C(C)(C)C(=O)[C@H](OC(=O)C(C)C)[C@H]1OC(C)=O (stereo partly drawn)	i
Cc1ccccc1NC(=O)Cn1nc2n(C)c(=O)c3ccc(C(=O)NC4CCCCC4)cc3n2c1=O	i
CCOC(=O)c1cc2n(n1)CC(C)(C(=O)NCc1ccc(C)cc1)N(c1ccc(OC)cc1)C2=O (stereo not drawn)	i
Cc1cc(C)n2nc(C)c(C(=O)N3CCCC(c4cccc(C(=O)O)c4)C3)c2n1 (stereo not drawn)	i
CCn1ncc(CN2CCCC23CCN(c2ccc(C(F)(F)F)cn2)CC3)c1C	i
CC(=O)NC[C@H]1CN(c2ccc(N3CCN(C(=O)CO)CC3)c(F)c2)C(=O)O1	i
CN(C)Cc1ccc(-c2nc3cccc4c3n2CCNC4=O)cc1	?
CC1(C(=O)NC2CCCCCCC2)Cn2c(ccc2-c2ccco2)C(=O)N1C1CCCC1 (stereo not drawn)	i
CCN1C(=O)c2cc(C(=O)N3CCC(N4CCCCC4)CC3)nn2CC1(C)C(=O)NC1CCCC1 (stereo not drawn)	i
CC1CC(C)CN(S(=O)(=O)c2ccc3c(c2)oc(=O)n3CC(=O)Nc2nccs2)C1 (stereo not drawn)	i
COC(=O)C1=C[C@@H](O)[C@@H](O)[C@H](O[C@@H]2O[C@H](CO)[C@@H](O)[C@H](O)[C@H]2OC(=O)/C=C/c2ccccc2)C1	i
O=C(c1ccc(Br)o1)N1C[C@@H](CO)[C@H](c2ccncc2)C1	i
CN1CC(C(=O)N2CCN(Cc3ccccc3)CC2)NC1=O (stereo not drawn)	i
O=C(NC1CCCCC1)C1c2cccn2-c2sc3c(c2C(=O)N1c1ccc(Cl)cc1)CCCC3 (stereo not drawn)	i
CCCC1c2cccn2CCN1C(=O)Nc1cccc(Cl)c1C (stereo not drawn)	?
COc1ccc(-c2n[nH]n3c2nc(=O)c2ccc(C(=O)NCc4ccc(Cl)cc4)cc23)cc1	i
COC1CC(=O)C23C(=O)NC(CC(C)C)C2C(C)C(C)=CC3/C=C(\C)CCCC1O (stereo not drawn)	i
Cc1cc(C(=O)N2CCOC(Cc3cccc(C(F)(F)F)c3)C2)nn1C (stereo not drawn)	i
COc1ccccc1CNS(=O)(=O)c1ccc2[nH]c(=O)[nH]c2c1	i
COc1cccc(CNc2nc3c(-c4ccc(Cl)cc4)nnn3c3ccccc23)c1	i
O=c1cc(N2CCOCC2)oc2c(NCC3CCOCC3)nccc12	i
O=C(CCC1CCN(S(=O)(=O)c2ccccc2)CC1)NCCCN1CCCC1=O	i
COc1ccccc1CN1C(=O)CSc2c(c3ccccc3n2C)C1C(=O)NCc1ccccc1 (stereo not drawn)	i
O=C(Nc1ccccc1)N1Cc2c(sc3c2CCCC3)-n2cccc2C1c1ccc(Cl)cc1 (stereo not drawn)	i
CCS(=O)(=O)N1CCC(CCOC)(NC(=O)C2CC2)CC1	i
O=C1NC(=O)/C(=C/c2ccc3nccnc3c2)S1	i
COc1ccc(CNC(=O)C2CCN(C(=O)c3oc4cc5sc(N(C)C)nc5cc4c3C)CC2)cc1	i
COc1ccc(C(=O)N[C@@H]2CCC[C@@H]2C(=O)N2CCSCC2)cc1	i
CC(=O)Nc1ccc(Nc2nc3c(S(=O)(=O)c4ccc(Cl)cc4)nnn3c3ccccc23)cc1	i
COc1ccc(C2(O)c3ccccc3NC(=O)C2OC)cc1 (stereo not drawn)	i
C=C(COC(=O)C(O)C(O)CN)C12OC1C1(C)C(=CC2=O)C(O)C(O)CC1C (stereo not drawn)	i
CC1C(=O)OCC2=CC[N+]3([O-])CCC(OC(=O)C(C)(O)C1(C)O)C23 (stereo not drawn)	i
CCOC(=O)Cc1ccc(NC(=O)N2CCn3c(C)ccc3C2C(C)C)cc1 (stereo not drawn)	i
COc1ccc(OC)c2c1cc1n2CC(C)(C(=O)NC2CCCC2)N(Cc2ccc(F)cc2)C1=O (stereo not drawn)	i
O=C(NC1CCCC1)C1c2ccccc2CC(=O)N1Cc1ccccc1 (stereo not drawn)	i
Cc1nn(C)c(=O)n1C1CCN(S(=O)(=O)c2cccs2)CC1	i
CC1CCCN(C(=O)Cn2c(=O)oc3cc(S(=O)(=O)N4CCCCC4)ccc32)C1 (stereo not drawn)	i
N[C@H](C(=O)O)c1cc(O)cc(O)c1	i
COc1ccc(C(=O)COC(=O)C(Cc2c[nH]c3ccccc23)NC(=O)c2ccc(Cl)cc2)cc1 (stereo not drawn)	i
CC(C)(OC1OC(CO)C(O)C(O)C1O)C1CCC(O)(CO)C2CC(=O)C(C)(O)C2C1 (stereo not drawn)	i

Entries shown so far that contain a Cl atom, in the order listed:
SMILES	Methyltransferases
CC1(C(=O)NC2CCCCC2)Cn2nc(-c3cccs3)cc2C(=O)N1Cc1ccc(Cl)cc1 (stereo not drawn)	i
Cc1cc2c(cc3n2CC(C)(C(=O)NC2CCCCCC2)N(Cc2ccc(Cl)cc2)C3=O)o1 (stereo not drawn)	i
CCOCCCNC(=O)C1c2c(n(C)c3ccccc23)SCC(=O)N1Cc1ccccc1Cl (stereo not drawn)	i
CC1(C(=O)NCc2ccccc2)Cn2c(cc3ccccc32)C(=O)N1Cc1ccccc1Cl (stereo not drawn)	i
COc1ccc(CN2CCC([C@@H]3CNC[C@H]3CO)CC2)c(Cl)c1OC	i
O=C(NC1CCCCC1)C1c2cccn2-c2sc3c(c2C(=O)N1c1ccc(Cl)cc1)CCCC3 (stereo not drawn)	i
CCCC1c2cccn2CCN1C(=O)Nc1cccc(Cl)c1C (stereo not drawn)	?
COc1ccc(-c2n[nH]n3c2nc(=O)c2ccc(C(=O)NCc4ccc(Cl)cc4)cc23)cc1	i
COc1cccc(CNc2nc3c(-c4ccc(Cl)cc4)nnn3c3ccccc23)c1	i
O=C(Nc1ccccc1)N1Cc2c(sc3c2CCCC3)-n2cccc2C1c1ccc(Cl)cc1 (stereo not drawn)	i
CC(=O)Nc1ccc(Nc2nc3c(S(=O)(=O)c4ccc(Cl)cc4)nnn3c3ccccc23)cc1	i
COc1ccc(C(=O)COC(=O)C(Cc2c[nH]c3ccccc23)NC(=O)c2ccc(Cl)cc2)cc1 (stereo not drawn)	i

High-throughput results deposited in PubChem by National Center for Advancing Translational Sciences (NCATS).
